Rce1 inhib – blocks yeast Ras-converting enzyme | Q03530 | yeast membranes, quenched prenylated peptide cleavage fluorescence | calls only | hit rate 0.27% among 290,000;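 active = fall in fluorescence gain of 50% or more versus controls, with final raw signal at or below 3038400; inconclusive = same 50% fall but final raw signal above 3038400; inactive = fall in fluorescence gain under 50%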;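 also: plate controls were neutral control wells for no effect and wells lacking membranes for full effect; tested at 10 µM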
Target sequence (Q03530 whole entry, looked up): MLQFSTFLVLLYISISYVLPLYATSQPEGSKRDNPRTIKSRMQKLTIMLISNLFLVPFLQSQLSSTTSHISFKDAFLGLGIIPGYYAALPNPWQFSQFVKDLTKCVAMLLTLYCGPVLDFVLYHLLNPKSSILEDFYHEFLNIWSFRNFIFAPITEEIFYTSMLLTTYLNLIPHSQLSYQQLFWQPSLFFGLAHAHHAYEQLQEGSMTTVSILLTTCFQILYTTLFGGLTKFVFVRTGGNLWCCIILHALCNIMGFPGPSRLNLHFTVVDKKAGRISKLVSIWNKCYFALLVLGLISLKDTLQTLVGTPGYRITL
Env fusion inh – blocks HIV Env-driven cell-cell fusion | HeLa-JRFL Env/CEM21 cell fusion, luciferase | inhibition, % at 12.3 µM | hit rate 1.1% among 360,000 | AID 651610;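 active = mean replicate inhibition score of at least 50 and every replicate individually at or above 50; inconclusive = only one of the two criteria met; inactive = mean below 50 and not all replicates reaching 50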;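 also: 0% = plate neutral controls and 100% = maraviroc near 300 nM; one replicate is shown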
MT1-MMP act inh – blocks activation of human MT1-MMP. HT1080 RFP-PRO-GFP cells, GFP/RFP ratio fluorescence, overnight; percent of plate control window, DMSO zero. AID 651647. GFP/RFP ratio change, % at 20 µM. P50281. hit rate 0.061% among 360,000;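 active = GFP/RFP ratio change of at least 30% with cell ATP level not reduced by more than half and red fluorescence within 50% of control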; also: strong numbers were not always called active
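Assay system – RFP-PRO-GFP reporter HT1080 cells · Compound dosing – single dose of 20 µM compound, 1% DMSO final · Incubation – overnight compound exposure at 37 °C · Measure – GFP/RFP fluorescence ratio · Benchmarks – DMSO wells and RFP-L50D-GFP cells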
CSC inhib – blocks cancer stem cells; inhibition, % at 7.5 µM; cancer stem cell-like cells viability, luminescence; hit rate 1.1% among 300,000;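 active = mean at 75% or more and at least half the replicates too; inconclusive = mean and replicates disagree; tested in HMLE shEcad cells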;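 also: 0% = median of negative and 100% = median of positive control wells; the first replicate is given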
eIF4H FP inh – inhibitors of RNA binding by human eIF4H; Q15056; eIF4H fluorescence polarization binding assay; inhibition, % at 35 µM; hit rate 0.94% among 290,000; AID 2012;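 active = 50% or more with normal probe brightness, or confirmed in later tests; inconclusive = above 50% with abnormal brightness, or retests that disagree; inactive = below 50% or failed in later tests; about a fifth of its hits are not listed in these tables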;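 also: calls also rest on retests at 20 µM and on dose response follow-up; 0% = protein and probe with vehicle and 100% = probe without protein; strong numbers were not always called active; many hits fall short of the cut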
Yeast UUG start – modulators of start codon recognition fidelity in yeast; hit rate 0.13% among 350,000; S. cerevisiae UUG-firefly luciferase reporter, luminescence/redox ratio; activity score, % at 18.7 µM; AID 602363;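 active = replicate mean at a twofold rise or more, about +100% in these data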;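 also: firefly luciferase made from a UUG start codon reports start codon fidelity; reporter light over untreated wells divided by growth signal over untreated wells; some hits fall short of that in this replicate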
PABP FP inh – blocks human PABP binding to poly(A) RNA; hit rate 1% among 290,000; AID 2014; fluorescence polarization; inhibition, % at 35 µM; P11940;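 active = 50% or more with normal probe brightness, or confirmed in later tests; inconclusive = above 50% with abnormal brightness, or retests that disagree; inactive = below 50% or failed in later tests; about a fifth of its hits are not listed in these tables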;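 also: calls also rest on retests at 20 µM and on dose response follow-up; controls were probe without protein and protein plus probe with vehicle; some compounds called inactive have numbers as strong as hits; many hits fall short of the cut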
eIF4H FP inh retest – further read-out of eIF4H FP inh, marked with its call; inhibition, %; compound at 20 µM; confirmation average;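 mean of two retest wells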
PABP FP inh retest – recorded beside PABP FP inh, whose call it bears; inhibition, %; compound at 20 µM; confirmation repeats;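 mean of two retest wells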
MT1-MMP act inh RFP – also measured in MT1-MMP act inh; calls as there; RFP signal change, %; measured here: RFP expression control read;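 0 = vehicle wells; hits needed this value within 50% of zero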
The depositor's hits bear a star; i = inactive; ? = inconclusive; · = no result given.

SMILES	Rce1 inhib	Env fusion inh	MT1-MMP act inh	MT1-MMP act inh RFP	CSC inhib	eIF4H FP inh	Yeast UUG start	PABP FP inh	others
CCOC(=O)C1(CCCc2ccccc2)CCN(C(=O)C2CCCN(C(N)=O)C2)CC1 (centres undefined)	·	-11	2	-1	7	-4	-6	5
CC(C)OC(=O)c1cccnc1SCC(=O)N(C)c1ccccc1	i	3	-1	3	-14	-21	6	-4
Cc1nccc(-c2ccc(-n3cnc4ccccc43)cc2)n1	i	·	-16	-13	3	-10	-11	-1
Cc1ccc(Cl)cc1NC(=O)CN1C(=O)NC(C)(C2CC2)C1=O (centres undefined)	·	2	1	3	-1	·	-2	·
CCOc1ccc2nc(NC3=NC(c4ccc(OC)cc4)CC(=O)N3)nc(C)c2c1 (centres undefined)	i	·	-17	-9	76*	-3	·	-24
CC(C)(C)c1ccc(S(=O)(=O)NC(=O)C2(C)CCN2C(=O)Cc2ccc(-c3ccccc3)cc2)cc1 (centres undefined)	·	17	9	1	·	·	-14	·
Cc1nn(CC(=O)Nc2c(C)n(C)n(-c3ccccc3)c2=O)c(C)c1[N+](=O)[O-]	i	2	-1	2	-12	7	-17	?
Cc1ccc(CSCCNC(=O)CSc2ccccc2)cc1	i	27	2	3	-2	98	-6	-9	eIF4H FP inh retest=-3;PABP FP inh retest=-3
Cc1ccc(C)c(N2CCN(C(=O)CCc3nc(-c4cccc(C(F)(F)F)c4)no3)CC2)c1	·	-7	2	-6	·	·	-24	·
COc1ccc(CN(C)CC(O)COc2ccc(-c3ccccc3)cc2)cc1OC (centres undefined)	i	1	-1	-4	12	-4	-7	-4
Cc1ccc(CCNC(=O)C2CCN(S(=O)(=O)N3CCCC3)CC2)cc1	i	-12	0	1	18	-3	-19	-17
O=C(NCCCSc1ccccc1)c1cccnc1	i	7	2	-4	·	-4	-10	7
CCn1cc(C2=NC(c3ccccc3)CO2)c2ccccc21 (centres undefined)	i	-14	3	-1	8	-5	-17	2
COCCN(C(=O)c1ccc(NC2CC2)c([N+](=O)[O-])c1)c1c(N)n(CC(C)C)c(=O)[nH]c1=O	·	-1	5	2	5	·	-21	·
S=C(Nc1ccccc1)N1CCN(C2CCCCC2)CC1	i	-65	7	4	-9	-3	-10	-3
O=C(Nc1ccc(N2CCN(C(=O)c3cccs3)CC2)cc1)c1ccc(F)cc1	i	22	-3	-9	-7	4	-16	-6
Cc1ccc(C(=O)OCC(=O)N(CC(C)C)c2c(N)n(Cc3ccccc3)c(=O)[nH]c2=O)cc1[N+](=O)[O-]	·	-9	-6	-2	-8	·	·	·
Cc1ccc(-c2nn3cnnc3c3ccccc23)cc1	i	-14	2	-1	-4	6	·	-2
Cc1cccc(N2CCN(S(=O)(=O)c3c(C)[nH]c(C)c3C(=O)N3CCCCC3)CC2)c1C	i	8	-1	0	8	14	7	14
CC(C)CN(C(=O)c1ccc(-n2cncn2)c([N+](=O)[O-])c1)C1CCS(=O)(=O)C1 (centres undefined)	i	-7	-3	-3	-6	·	-14	·
O=C(Cn1nc(C(=O)O)c2ccccc2c1=O)Nc1nc(-c2ccccc2)cs1	i	-54	-2	2	-6	6	·	5
CCc1cccc(CC)c1NC(=O)c1ccc(-c2cc(Cl)ccc2Cl)o1	·	33	0	2	·	·	-3	·
CCOc1ccc(NC(=O)CN2CCN(CC(=O)Nc3ccc(C(=O)OC)cc3)CC2)cc1	i	·	-2	-3	10	-4	0	8
Cc1cc(Nc2cccc(C)c2C)n2ncnc2n1	i	2	17	4	18	6	-11	4

Structures from the list above containing a halogen (four):
SMILES	Rce1 inhib	Env fusion inh	MT1-MMP act inh	MT1-MMP act inh RFP	CSC inhib	eIF4H FP inh	Yeast UUG start	PABP FP inh	others
Cc1ccc(Cl)cc1NC(=O)CN1C(=O)NC(C)(C2CC2)C1=O (centres undefined)	·	2	1	3	-1	·	-2	·
Cc1ccc(C)c(N2CCN(C(=O)CCc3nc(-c4cccc(C(F)(F)F)c4)no3)CC2)c1	·	-7	2	-6	·	·	-24	·
O=C(Nc1ccc(N2CCN(C(=O)c3cccs3)CC2)cc1)c1ccc(F)cc1	i	22	-3	-9	-7	4	-16	-6
CCc1cccc(CC)c1NC(=O)c1ccc(-c2cc(Cl)ccc2Cl)o1	·	33	0	2	·	·	-3	·

(list continues)
SMILES	Rce1 inhib	Env fusion inh	MT1-MMP act inh	MT1-MMP act inh RFP	CSC inhib	eIF4H FP inh	Yeast UUG start	PABP FP inh	others
O=C(c1cc2ccccn2n1)N1CCN(c2cccc(C(F)(F)F)c2)CC1	i	·	1	-11	-12	-11	·	-14
CCCCNC(=O)C1CCN(S(=O)(=O)N2CCOCC2)CC1	i	-12	-2	-1	-4	-6	4	56	eIF4H FP inh retest=-12;PABP FP inh retest=2
CN(C(=O)c1nn(C)c2c1CSc1ccccc1-2)c1ccccc1Cl	i	-4	4	5	2	-2	-1	-1
CCn1nc(C(=O)NNC(=O)CCOc2cc(C)ccc2C)c2ccccc2c1=O	i	·	0	2	-2	-4	9	-6
COc1ccccc1N/C(=N/S(=O)(=O)c1ccc(Cl)cc1)c1ccccc1	i	-19	-3	0	-8	1	-13	2
CSCCC(NC(=O)COc1ccccc1)C(=O)N(C)Cc1c(F)cccc1Cl (centres undefined)	·	40	3	-3	·	·	7	·
COc1ccc(-c2nnc(SCC(=O)Nc3ccc4c(c3)OCCO4)n2N)cc1OC	i	-33	2	5	8	7	-2	4
CN(CC1CCOCC1)C(=O)CC1C(=O)NCCN1Cc1ccccc1F (centres undefined)	i	-8	0	4	-5	4	-9	16
CC(C)(C)OC(=O)NN1CC(=O)N2[C@@H](Cc3c([nH]c4ccccc34)C2(C)C)C1=O	i	-18	-2	-4	-1	-3	-1	0
Cc1cc(OCCN2CCC(Cc3ccccc3)CC2)ccc1[N+](=O)[O-]	i	9	-2	4	57	2	-5	-19
O=C(NCc1ccco1)c1cccs1	i	·	3	4	-7	-5	-7	-7
CCC1CCCCN1C(=O)C(=O)c1cn(CC(=O)N(CC)CC)c2ccccc12 (centres undefined)	i	-5	2	2	-8	-4	14	2
O=C(O)CC/C(=N\Nc1ccc(Cl)cc1)c1cccs1	i	9	-5	0	2	-8	4	4
Cc1nn(CC(=O)Nc2ccc3c(c2)nc(CN2CCCC2)n3C)c(=O)c2ccccc12	i	·	3	1	-1	3	-44	-20
O=C(CSC1CC(=O)N(CC(c2ccccc2)c2ccccc2)C1=O)Nc1ccc(Cl)cc1 (centres undefined)	i	0	1	-16	26	-5	-11	4
COC(=O)C1CCCN1C(=O)C12CC3CC(CC(C3)C1)C2 (centres undefined)	i	-66	-3	-4	-9	-6	0	-6
CCCc1cc(C(=O)N(C2CCCCC2)C2CCCCC2)no1	i	21	-1	-1	11	-8	0	2
O=C(NCCc1ccc(Cl)cc1)c1cccnc1	i	-73	-1	4	-12	5	·	10
CC(=O)c1ccc(NC(=O)C(C)N2CCN(C/C=C/c3ccccc3)CC2)cc1 (centres undefined)	i	11	0	-1	0	-2	·	-1
C[C@@H]1CN([C@H](C)CO)S(=O)(=O)c2ccc(C#C[C@@H](C)O)cc2O[C@@H]1CN(C)Cc1ccc(-c2ccccc2)cc1	·	31	-12	-20	·	·	13	·
FC(F)(F)C(Oc1nc(NC2CCCCC2)nc(N2CCOCC2)n1)C(F)(F)F	i	-113	-12	-14	-15	-5	-15	7
CC(C)CN1CCN=C1N(C)C	·	10	-1	3	-8	·	-16	·
O=C1C2C3C=CC(C3)C2C(=O)N1Cc1ccccc1 (centres undefined)	i	-24	0	1	-2	-7	-18	-4
O=C(Cn1nc(-c2ccco2)ccc1=O)Nc1cc(Cl)ccc1Cl	i	7	2	-1	-2	10	-12	21
CC(C)(C)C(=O)Nc1nnc(SCC(=O)Nc2ccc3c(c2)OCO3)s1	i	9	2	-3	·	-16	·	0
CCOC(=O)c1[nH]c2ccc(C)cc2c1N=C(C)N(C)C	i	·	0	3	5	-9	4	2
N#Cc1c(N)n(CCNC(=O)c2ccccc2)c2nc3ccccc3nc12	i	14	-3	4	-4	10	·	7
O=C(CSCc1ccc(Br)cc1)Nc1ccc(S(=O)(=O)N2CCCCCC2)cc1	i	·	-19	-15	63	18	-23	1
Cc1nc(C(=O)NNC(=O)c2ccccc2Cl)c(C(F)(F)F)o1	i	6	3	5	2	8	-6	-10
O=C(Nc1ccc(Cl)cn1)C1CCN(S(=O)(=O)c2cccs2)CC1	i	23	-1	-28	28	-1	-7	4
Cc1cc(NC(=O)c2cc(CC(C)C)on2)n(-c2ccccc2)n1	i	-11	0	4	1	-5	-14	-6
Cc1cc(C)nc(SCc2ccc(C(=O)N/N=C/c3ccccc3C(=O)O)cc2)n1	i	12	-4	3	-2	-3	·	-1
COc1ccc(CC(=O)Nc2cccc(-c3nnc(-c4ccc(C)cc4)o3)c2)cc1OC	i	·	-23	-25	34	-2	5	-3
CC(C)CNC(=O)CN1C(=O)NC2(CCCc3ccccc32)C1=O (centres undefined)	i	0	1	-3	-19	-3	-17	-2
CCOC(=O)c1c(C)[nH]c(C(=O)CN2CCOCC2)c1C	i	-31	2	1	·	5	·	-4
Cc1nn(Cc2ccccc2)c(C)c1/C=N/NC(=O)CNc1cccc(C(F)(F)F)c1	i	15	0	-6	28	1	·	-13
COc1cc(/C=C2/C(=O)N(c3ccc(C(=O)O)cc3)N=C2C)cc(OC)c1O	i	-312	-3	0	-4	?	-17	?
Cc1ccc(CNC(=O)C2CCCN(c3nn4c(=O)cc(C)nc4s3)C2)cc1 (centres undefined)	i	-7	1	4	-7	-2	-9	4
CCCN1CCC(N(CCc2ccccc2)Cc2ccccc2)CC1	i	11	-2	-5	23	-14	-36	8
CCOc1ccc(CCNC(=O)c2nnn(CC(=O)Nc3ccc(OC)cc3)c2N)cc1OCC	i	-3	-2	2	1	-3	-16	8
Cn1nnnc1SCC1=C(C(=O)O)N2C(=O)C(NC(=O)C3CC3c3ccccc3)C2SC1 (centres undefined)	i	-10	-4	4	-12	21	·	7
COc1cc(C(=O)Oc2cccnc2)cc(OC)c1OC	i	-9	2	2	-7	-11	-14	-3
FC(F)(F)c1ccc(C2[C@H]3CN(Cc4ccc(-c5ccccc5)cc4)[C@H](c4ccccc4)C34CC2(c2ccccc2)C4)cc1 (some centres undefined)	i	-15	·	·	12	10	·	-16
CC(C)(C)OC(=O)NCc1ccc(CNC(=O)c2[nH]cnc2C(=O)NC2CCN(C(=O)OC(C)(C)C)CC2)cc1	·	·	8	-27	19	·	22	·
CC(CCc1ccccc1)NC(=O)C1CC1 (centres undefined)	i	4	4	2	-6	·	-11	·
O=C(CN(c1ccccc1)S(=O)(=O)c1ccc(F)cc1)N1CCCCCC1	i	·	-4	-1	-14	-4	1	-5
CCN(CC(=O)Nc1ccc(NC(C)=O)cc1)C(=O)Cc1ccc(S(=O)(=O)N2CCOCC2)s1	i	3	2	3	-6	·	-5	·
O=C(NCC1CCCCC1)c1ccc2nc([C@@H]3O[C@H](CO)[C@H](O)[C@H](O)[C@H]3O)[nH]c2c1	·	-2	-3	7	·	·	6	·
COc1ccc(NC(=O)CSc2nc(N)c(C(=O)Nc3ccc(N(C)C)cc3)s2)cc1	i	·	12	-8	9	-4	-9	-5
C=CCSc1nc(N)c(C#N)c(-c2ccc(C)cc2)c1C#N	i	·	7	-3	-2	-9	-27	13
COc1cc(OC)cc(C(=O)NCC(=O)OCC(=O)C(C)(C)C)c1	i	5	-3	-3	-15	-3	-19	9
Cc1cc(C)cc(OCC(=O)OCC(=O)N2CCc3ccccc32)c1	i	-19	3	-1	-10	·	·	·

Screening data from PubChem.
